A1 apoptosis 2 = A1 inhibitors via caspase activation, primary screen, cell-based, luminescence, HTS, two replicates; 24,000 tested, under 10 active; caspase activation, % (test concentration not listed); AID 2465, 2010; MEF A1-2A-BIM cells, caspase-Glo luminescence, 3 h; percent of clofoctol response, DMSO zero; in the data active means caspase activation above about 5.9%;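 further: wells of about 30 µL received 50 nL stock; the first replicate is given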
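Material: A1-2A-BIM-expressing MEF cells. Buffer or medium: RPMI-1640 plus 10% FBS. Incubation: cells settled overnight, compound exposure 3 h at 37 °C, 5% CO2. Signal: Caspase-Glo 3/7 luminescence, 1 h at room temperature.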
Active calls of the source: *; & = joins results of further samples. Not all compounds are listed, so the mix of outcomes need not match the whole.

SMILES	A1 apoptosis 2
Cc1ccc(S(=O)(=O)N(C)C[C@@H]2Oc3ccc(NC(=O)Nc4ccccc4)cc3CC(=O)N([C@H](C)CO)C[C@@H]2C)cc1	0.6
OC(CSc1ccncc1)CC(O)c1ccccc1 (stereo not given)	-0.3
C[C@H](CO)N1C[C@H](C)[C@H](CN(C)S(=O)(=O)c2cn(C)cn2)Oc2c(NS(=O)(=O)c3ccc(Cl)cc3)cccc2C1=O	-0.5
C[C@@H]1CN([C@@H](C)CO)C(=O)c2cc(NC(=O)NC3CCCCC3)ccc2O[C@@H](C)CCCCO[C@@H]1CN(C)S(=O)(=O)c1ccccc1	-0.3
Cc1ccc(S(=O)(=O)N(C)C[C@@H]2Oc3c(NC(=O)Nc4ccc(F)cc4)cccc3C(=O)N([C@@H](C)CO)C[C@H]2C)cc1	-0.4
COc1ccc(S(=O)(=O)N(C)C[C@@H]2Oc3ccc(NC(=O)Cc4ccccc4)cc3C(=O)N([C@H](C)CO)C[C@H]2C)cc1	0.9
C[C@H]1CN([C@@H](C)CO)C(=O)Cc2cc(NC(=O)c3ccncc3)ccc2O[C@H]1CN(C)Cc1ccc(C(F)(F)F)cc1	0.9
C[C@@H]1CN([C@@H](C)CO)C(=O)c2cccc(NC(=O)C3CCOCC3)c2O[C@H]1CN(C)C(=O)Nc1ccc(F)cc1	0.9
Cc1ccc(S(=O)(=O)Nc2ccc3c(c2)C(=O)N([C@H](C)CO)C[C@@H](C)[C@H](CN(C)S(=O)(=O)c2ccc(Cl)cc2)OCCCC[C@H](C)O3)cc1	-1.1
C[C@H](CO)N1C[C@H](C)[C@@H](CN(C)Cc2ccc(Cl)c(Cl)c2)Oc2ccc(NC(=O)C3CCCCC3)cc2C1=O	-1.6
C[C@H]1CN([C@@H](C)CO)C(=O)CCCn2cc(nn2)CO[C@@H]1CN(C)C(=O)CCC(F)(F)F	-0.2
C[C@@H]1CN([C@@H](C)CO)C(=O)Cc2cc(NC(=O)c3ccncc3)ccc2O[C@@H]1CN(C)Cc1ccc2c(c1)OCO2	1.0
CC(C)NC(=O)Nc1ccc2c(c1)C(=O)N([C@H](C)CO)C[C@H](C)[C@H](CN(C)C)OCCCC[C@H](C)O2	-1.6
CC(C)NC(=O)Nc1ccc2c(c1)CC(=O)N([C@@H](C)CO)C[C@H](C)[C@@H](CN(C)Cc1ccc(-c3ccccc3)cc1)O2	-0.8
CCCNC(=O)[C@@H]1c2ccccc2C(=O)N(CC23CC4CC(CC(C4)C2)C3)[C@H]1c1ccc(CO)cc1	-1.2
C[C@H]1CN([C@@H](C)CO)C(=O)c2cccc(NS(=O)(=O)c3cn(C)cn3)c2O[C@H]1CN(C)Cc1ccc(C(F)(F)F)cc1	0.5
CCCN(C)C[C@H]1OCCCC[C@H](C)Oc2ccc(NC(=O)C3CCCCC3)cc2C(=O)N([C@@H](C)CO)C[C@H]1C	-0.4
C[C@H]1CN([C@@H](C)CO)C(=O)c2cccc(NC(=O)Nc3cccc4ccccc34)c2O[C@H]1CN(C)C	0.9
COc1ccc(S(=O)(=O)Nc2cccc3c2O[C@H](CN(C)Cc2ccc(C(=O)Nc4ccccc4N)cc2)[C@@H](C)CN([C@@H](C)CO)C3=O)cc1	-0.4
C[C@H](CO)N1C[C@H](C)[C@H](CN(C)S(=O)(=O)c2cccc(C#N)c2)OCc2cnnn2CCCC1=O	0.7
CC(C)NC(=O)Nc1ccc2c(c1)C(=O)N([C@@H](C)CO)C[C@H](C)[C@H](CN(C)S(=O)(=O)c1ccccc1)OCCCC[C@@H](C)O2	1.0
C[C@H](CO)N1C[C@H](C)[C@H](CN(C)Cc2ccncc2)Oc2ccc(NC(=O)CCCN(C)C)cc2C1=O	0.9
COc1ccc(CN(C)C[C@H]2Oc3c(NS(=O)(=O)c4ccc(C)cc4)cccc3C(=O)N([C@H](C)CO)C[C@@H]2C)cc1	0.6
C[C@@H]1CN([C@H](C)CO)C(=O)CCCn2cc(nn2)CO[C@H]1CN(C)C(=O)c1cc(-c2ccccc2)on1	-0.1
Cc1noc(C)c1S(=O)(=O)N(C)C[C@@H]1OCCCC[C@H](C)Oc2ccc(NS(=O)(=O)c3ccc(Cl)cc3)cc2C(=O)N([C@H](C)CO)C[C@@H]1C	0.0
C[C@@H]1CN([C@@H](C)CO)C(=O)c2cccc(NC(=O)c3nc4ccccc4s3)c2O[C@H]1CN(C)Cc1ccncc1	-0.4
Cc1noc(C)c1S(=O)(=O)Nc1ccc2c(c1)C(=O)N([C@H](C)CO)C[C@H](C)[C@@H](CN(C)S(=O)(=O)c1ccc(Cl)cc1)OCCCC[C@@H](C)O2	-0.2
C[C@@H]1CN([C@H](C)CO)C(=O)c2cccc(NC(=O)Nc3ccc(C(F)(F)F)cc3)c2O[C@H]1CN(C)S(=O)(=O)c1ccc(F)cc1	-1.3
OC[C@@H]1[C@H]2c3ccccc3OC1(CO)N=C1SCCCN12	0.5
C[C@H](CO)N1C[C@H](C)[C@@H](CN(C)S(=O)(=O)c2cn(C)cn2)Oc2ccc(NS(=O)(=O)c3ccccc3)cc2C1=O	-1.5
C[C@H](CO)N1C[C@H](C)[C@@H](CN(C)Cc2ccc(C(F)(F)F)cc2)Oc2c(NC(=O)c3ccc(-c4nccs4)cc3)cccc2C1=O	-0.5
Cc1ccc(S(=O)(=O)Nc2ccc3c(c2)C(=O)N([C@@H](C)CO)C[C@@H](C)[C@H](CN(C)Cc2ccc(Cl)c(Cl)c2)O3)cc1	0.9
C[C@H](CO)N1C[C@H](C)[C@@H](CN(C)Cc2ccc(-c3ccccc3)cc2)Oc2ccc(NS(=O)(=O)c3ccc(F)cc3)cc2C1=O	1.2
C[C@H]1CN([C@@H](C)CO)C(=O)Cc2cc(NC(=O)Cc3cn(C)c4ccccc34)ccc2O[C@@H]1CN(C)CC1CC1	1.4
Cc1noc(C)c1NC(=O)Nc1ccc2c(c1)CC(=O)N([C@H](C)CO)C[C@@H](C)[C@@H](CN(C)C(=O)Nc1ccc(F)cc1)O2	-1.2
Cc1noc(C)c1S(=O)(=O)Nc1ccc2c(c1)C(=O)N([C@@H](C)CO)C[C@@H](C)[C@H](CN(C)C(=O)C1CCCCC1)OCCCC[C@@H](C)O2	0.1
C[C@@H]1CN([C@@H](C)CO)C(=O)c2cc(NC(=O)c3ccncc3)ccc2O[C@@H](C)CCCCO[C@H]1CN(C)Cc1ccc(C(=O)O)cc1	-0.8
C[C@@H]1CCCCO[C@H](CN(C)C(=O)c2ccccc2)[C@H](C)CN([C@@H](C)CO)C(=O)c2cc(NC(=O)CCCN(C)C)ccc2O1	-0.5
C[C@@H]1CN([C@@H](C)CO)C(=O)c2cccc(NC(=O)c3cnccn3)c2O[C@@H]1CN(C)Cc1ccccc1	0.2
Cc1ccsc1/C=N/NC(=O)CCCCCC(=O)O	0.2
CNC[C@@H]1OCCCC[C@H](C)Oc2ccc(NC(=O)Nc3ccc4c(c3)OCO4)cc2C(=O)N([C@H](C)CO)C[C@@H]1C	0.8
C[C@@H]1CCCCO[C@@H](CN(C)C(=O)c2ccccc2)[C@H](C)CN([C@@H](C)CO)C(=O)c2cc(N(C)C)ccc2O1	1.2
C[C@@H]1CN([C@H](C)CO)C(=O)Cc2cc(NC(=O)Nc3ccc(C(F)(F)F)cc3)ccc2O[C@@H]1CN(C)S(=O)(=O)c1cn(C)cn1	0.1
C[C@@H]1CCCCO[C@@H](CN(C)S(=O)(=O)c2cccs2)[C@@H](C)CN([C@@H](C)CO)C(=O)c2cc(NC(=O)Nc3ccc(C(F)(F)F)cc3)ccc2O1	0.5
C[C@H](CO)N1C[C@H](C)[C@H](CN(C)S(=O)(=O)c2ccc(Cl)cc2)Oc2ccc(NS(=O)(=O)c3ccccc3)cc2CC1=O	0.7
COc1ccc(NC(=O)N(C)C[C@@H]2OCCCC[C@@H](C)Oc3ccc(N(C)C)cc3C(=O)N([C@H](C)CO)C[C@H]2C)cc1	-2.0
CC(C)NC(=O)Nc1ccc2c(c1)C(=O)N([C@H](C)CO)C[C@@H](C)[C@H](CN(C)S(=O)(=O)c1cn(C)cn1)OCCCC[C@H](C)O2	-0.5
C[C@H]1CN([C@@H](C)CO)C(=O)c2cc(NC(=O)C3CC3)ccc2O[C@@H]1CN(C)Cc1ccc(Cl)c(Cl)c1	-1.4
C[C@H](CO)N1C[C@H](C)[C@H](CN(C)C)Oc2ncc(C#Cc3ccc(F)cc3)cc2C1=O	2.1
Cc1noc(C)c1NC(=O)Nc1ccc2c(c1)CC(=O)N([C@@H](C)CO)C[C@H](C)[C@@H](CN(C)C(=O)NC(C)C)O2	2.4
CNC[C@@H]1Oc2c(cccc2N(C)C)C(=O)N([C@H](C)CO)C[C@H]1C	0.0
C[C@@H]1CN([C@@H](C)CO)C(=O)c2cc(N(C)C)ccc2O[C@@H](C)CCCCO[C@@H]1CN(C)Cc1ccccc1	-0.6
C[C@@H]1CN([C@H](C)CO)C(=O)c2cc(NC(=O)c3ccncc3)ccc2O[C@@H](C)CCCCO[C@H]1CN(C)C(=O)Nc1cccc2ccccc12	2.4
C[C@H]1CN([C@@H](C)CO)C(=O)Cc2cc(NS(=O)(=O)c3ccc(Cl)cc3)ccc2O[C@@H]1CN(C)Cc1ccncc1	-0.5
COc1ccc(S(=O)(=O)Nc2ccc3c(c2)C(=O)N([C@@H](C)CO)C[C@H](C)[C@H](CN(C)Cc2ccccc2)OCCCC[C@H](C)O3)cc1	-1.0
C[C@H](CO)N1C[C@H](C)[C@H](CN(C)S(C)(=O)=O)Oc2ncc(-c3cccc(C(F)(F)F)c3)cc2C1=O	0.7
C[C@H](CO)N1C[C@H](C)[C@@H](CN(C)CC2CC2)Oc2c(NC(=O)C3CCOCC3)cccc2C1=O	-0.1
C[C@@H]1CN([C@@H](C)CO)C(=O)c2cc(NC(=O)Nc3ccccc3)ccc2O[C@@H](C)CCCCO[C@H]1CN(C)C	-0.1
COc1ccc(CN(C)C[C@H]2Oc3ccc(NC(=O)C4CC4)cc3C(=O)N([C@H](C)CO)C[C@@H]2C)cc1	0.2
C[C@@H]1CN([C@@H](C)CO)C(=O)Cc2cc(NC(=O)CCN3CCOCC3)ccc2O[C@H]1CN(C)Cc1ccc(-c2ccccc2)cc1	0.1

Continued:
SMILES	A1 apoptosis 2
C[C@@H]1CN([C@H](C)CO)C(=O)c2cc(NC(=O)c3ccncc3)ccc2O[C@@H](C)CCCCO[C@@H]1CN(C)C(=O)c1ccccc1	0.9
Cc1noc(C)c1NC(=O)N(C)C[C@@H]1Oc2ccc(NS(=O)(=O)c3cn(C)cn3)cc2CC(=O)N([C@H](C)CO)C[C@@H]1C	-0.7
O=C(O)C1=C[C@@H](c2csc3ccccc23)C[C@@H](OCCCCO)O1	1.1&1.8
COc1ccc(NC(=O)N(C)C[C@@H]2Oc3ncc(C#CC(C)(C)O)cc3C(=O)N([C@H](C)CO)C[C@@H]2C)cc1	-1.0
C[C@H]1CCCCO[C@H](CN(C)Cc2ccncc2)[C@@H](C)CN([C@@H](C)CO)C(=O)c2cc(NC(=O)Nc3ccccc3)ccc2O1	0.3
Cc1noc(C)c1S(=O)(=O)Nc1ccc2c(c1)C(=O)N([C@H](C)CO)C[C@H](C)[C@H](CN(C)C(=O)Nc1ccc(F)cc1)O2	2.0
C[C@H](CO)N1C[C@H](C)[C@H](CN(C)Cc2ccc(C(=O)Nc3ccccc3N)cc2)Oc2ccc(NC(=O)Nc3cccc4ccccc34)cc2C1=O	0.1
C[C@@H]1CN([C@@H](C)CO)C(=O)Cc2cc(NS(=O)(=O)c3ccc(Cl)cc3)ccc2O[C@@H]1CN(C)C(=O)NC1CCCCC1	-0.2
COc1ccc(NC(=O)Nc2ccc3c(c2)C(=O)N([C@@H](C)CO)C[C@H](C)[C@H](CN(C)C(=O)C2CCCCC2)OCCCC[C@H](C)O3)cc1	0.9
Cc1noc(C)c1NC(=O)Nc1ccc2c(c1)C(=O)N([C@H](C)CO)C[C@H](C)[C@@H](CN(C)S(=O)(=O)c1ccc(F)cc1)O2	0.5
C[C@@H]1CN([C@@H](C)CO)C(=O)Cc2cc(NS(=O)(=O)c3cn(C)cn3)ccc2O[C@@H]1CN(C)S(=O)(=O)c1ccc(Cl)cc1	-0.4

Entries above that have an aryl methoxy group:
SMILES	A1 apoptosis 2
COc1ccc(S(=O)(=O)N(C)C[C@@H]2Oc3ccc(NC(=O)Cc4ccccc4)cc3C(=O)N([C@H](C)CO)C[C@H]2C)cc1	0.9
COc1ccc(S(=O)(=O)Nc2cccc3c2O[C@H](CN(C)Cc2ccc(C(=O)Nc4ccccc4N)cc2)[C@@H](C)CN([C@@H](C)CO)C3=O)cc1	-0.4
COc1ccc(CN(C)C[C@H]2Oc3c(NS(=O)(=O)c4ccc(C)cc4)cccc3C(=O)N([C@H](C)CO)C[C@@H]2C)cc1	0.6
COc1ccc(NC(=O)N(C)C[C@@H]2OCCCC[C@@H](C)Oc3ccc(N(C)C)cc3C(=O)N([C@H](C)CO)C[C@H]2C)cc1	-2.0
COc1ccc(S(=O)(=O)Nc2ccc3c(c2)C(=O)N([C@@H](C)CO)C[C@H](C)[C@H](CN(C)Cc2ccccc2)OCCCC[C@H](C)O3)cc1	-1.0
COc1ccc(CN(C)C[C@H]2Oc3ccc(NC(=O)C4CC4)cc3C(=O)N([C@H](C)CO)C[C@@H]2C)cc1	0.2
COc1ccc(NC(=O)N(C)C[C@@H]2Oc3ncc(C#CC(C)(C)O)cc3C(=O)N([C@H](C)CO)C[C@@H]2C)cc1	-1.0
COc1ccc(NC(=O)Nc2ccc3c(c2)C(=O)N([C@@H](C)CO)C[C@H](C)[C@H](CN(C)C(=O)C2CCCCC2)OCCCC[C@H](C)O3)cc1	0.9
